Screening data as filed in PubChem BioAssay.
INS promoter inh = inhibitors of insulin promoter-driven GFP, primary screen, imaging, TRM-6 cells (human fetal islet line), eGFP reporter, cell count; reporter expression induced with tamoxifen; inhibition, % at 2 µM; 0.9% of 130,000 active;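 active means inhibition above the mean plus 3 SD, with well images judged a real hit on visual review, cut at about 60% in these data, passing the limit was not always enough; inconclusive means inhibition over the cutoff but images rejected on review; inactive means inhibition not above the cutoff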
PKD1 kinase inh = inhibitors of human PKD1 kinase, biochemical, fluorescence polarization; PKD1 kinase fluorescence polarization assay; Serine/threonine-protein kinase D1 (Homo sapiens), Q15139; AID 797, 2007; 0.056% of 200,000 active; inhibition, %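 (about 10 µM by stock and volumes)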;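 active means inhibition of 50% or more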;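 further: controls were vehicle for no effect and a reference inhibitor for full effect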
GALR2 agonist = GALR2 receptor agonists, primary screen, cell-based | Galanin receptor type 2 (Homo sapiens), O43603 | GALR2-expressing cells, agonist activation read-out | activation, %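 (tested at 5 µM)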 | AID 803, 2007 | 0.48% of 140,000 active;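 active means above mean plus 3 SD of all compounds, about 5% in these data, not always enough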;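 further: 0% = vehicle buffer wells and 100% = reference agonist at full effect; tested in CHO reporter cells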
Target sequence (O43603 whole entry, looked up): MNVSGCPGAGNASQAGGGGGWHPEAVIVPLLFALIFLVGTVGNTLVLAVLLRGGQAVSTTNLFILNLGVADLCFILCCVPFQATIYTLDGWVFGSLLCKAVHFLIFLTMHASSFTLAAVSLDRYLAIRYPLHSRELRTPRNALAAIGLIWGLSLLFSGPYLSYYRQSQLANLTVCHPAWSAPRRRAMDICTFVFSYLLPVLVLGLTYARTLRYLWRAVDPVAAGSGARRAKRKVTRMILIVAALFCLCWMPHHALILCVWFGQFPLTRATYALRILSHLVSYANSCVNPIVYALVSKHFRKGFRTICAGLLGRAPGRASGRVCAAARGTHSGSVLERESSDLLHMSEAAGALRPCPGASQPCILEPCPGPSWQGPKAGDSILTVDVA
RGS16-Gao = modulators of RGS16 binding to Galphao, primary screen, biochemical, human proteins, multiplexed bead flow cytometry. Regulator of G-protein signaling 16 (Homo sapiens) + Guanine nucleotide-binding protein …. bead-based flow cytometry RGS16-Galphao binding, fluorescence; actives lie on both sides. binding response (% of control), % at 10 µM. 0.38% of 220,000 active;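 active means below 25% or above 175%, edge rows of some plates excepted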;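 further: Galphao activated by GDP with aluminum fluoride before binding; 100% = wells without compound and 0% = beads without RGS; some results beyond the cut were filed as inactive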
Target sequence (O15492 whole entry, looked up): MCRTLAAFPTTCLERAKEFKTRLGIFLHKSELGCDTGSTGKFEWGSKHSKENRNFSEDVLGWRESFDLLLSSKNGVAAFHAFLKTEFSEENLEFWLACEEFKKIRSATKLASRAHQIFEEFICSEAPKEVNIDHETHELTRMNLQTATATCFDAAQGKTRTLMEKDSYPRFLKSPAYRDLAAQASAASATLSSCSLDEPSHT
Target sequence (P09471 whole entry, looked up): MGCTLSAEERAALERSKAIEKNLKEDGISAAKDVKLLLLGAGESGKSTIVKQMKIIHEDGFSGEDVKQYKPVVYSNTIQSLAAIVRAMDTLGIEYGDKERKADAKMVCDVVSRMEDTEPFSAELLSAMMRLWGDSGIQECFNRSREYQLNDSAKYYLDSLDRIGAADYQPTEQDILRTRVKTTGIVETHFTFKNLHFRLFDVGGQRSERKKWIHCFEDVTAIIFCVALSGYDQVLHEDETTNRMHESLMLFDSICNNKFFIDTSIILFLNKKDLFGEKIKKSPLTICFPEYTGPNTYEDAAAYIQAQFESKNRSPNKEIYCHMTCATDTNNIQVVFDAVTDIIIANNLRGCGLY
HSV augment = enhancers of HSV replication in host cells, fold increase, host cell viability; maximum fold increase; 0.005% of 220,000 active; HSV replication augmentation in cells;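 active means peak rise of 1.5-fold or more in the series; inconclusive means self-fluorescent or not available for retest; tested in PC3 cells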;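 further: first round at 10 µM; read as green reporter fluorescence; hits show the peak of a series up to 25 µM; 1 = signal of infected wells without compound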
INS promoter inh cell count = also measured in INS promoter inh; calls as there; normalized cell count, %; measured here: cell count, toxicity; reference of the scale not given here;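 cells exposed to compound for 48 h; stained nuclei by imaging scaled within each plate; lower means fewer cells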
HSV augment primary fold = recorded beside HSV augment, whose call it bears; fold increase; compound at 10 µM; measured here: primary screen fold increase 10 uM; tested in PC3 cells;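 GFP signal in the first replicate; 1 = infected wells without compound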
Active calls of the source: *; i = inactive; ? = inconclusive; . = not tested or not shown.

#	Compound	INS promoter inh	INS promoter inh cell count	PKD1 kinase inh	GALR2 agonist
1	O=C(N/N=C\c1ccc(F)cc1)c1ccc(Cn2cc(Br)c([N+](=O)[O-])n2)o1	-27.3	48.4	-3.2	-1.3
2	CNS(=O)(=O)c1cc(OC)ccc1OC	-115.4	112.3	-9.4	-0.3
3	CCOc1cc(/C=C2\N=C(SC)SC2=O)cc([N+](=O)[O-])c1OC(C)=O	-15.0	81.7	-4.5	-2.1
4	COC(=O)C(/C=N/OCc1ccc([N+](=O)[O-])cc1)NC(=O)c1ccccc1 (stereo not given)	-27.6	122.4	-14.0	-1.1
5	COc1ccc(C2C3=C(CC(C)(C)CC3=O)Nc3c2c(=O)[nH]c(=O)n3Cc2ccccc2)cc1 (stereo not given)	42.3	107.4	-6.1	2.1
6	O=C(NCc1ccccc1)C1CCN(S(=O)(=O)N2CCOCC2)CC1	.	.	-14.0	-1.4
7	N#C/C(=C\c1ccc2c(c1)OCO2)C(=O)NCc1ccco1	0.0	138.1	-9.0	.
8	Cc1occc1C(=O)NNC(=S)Nc1ccccc1C(F)(F)F	.	.	-2.0	-2.4
9	CC(C)CNS(=O)(=O)c1ccc(CCC(=O)N2CCN(c3ccc(F)cc3)CC2)cc1	.	.	4.0	.
10	c1ccc(OCc2noc(CN3CCC(C4CCCCC4)C3)n2)cc1 (stereo not given)	.	.	-7.8	.
11	CCOc1cc(S(=O)(=O)NCc2ccncc2)ccc1Cl	11.6	85.7	-6.0	.
12	COc1ccc(C(=O)N/C(=C/c2cccnc2)C(=O)NCc2ccco2)cc1OC	.	.	.	.
13	Cc1occc(=O)c1OC(=O)Nc1ccc(Cl)c(Cl)c1	16.7	78.0	-1.6	-0.1
14	COc1cccc(-c2ccc(C#N)c(SCC(=O)NCCc3ccccc3)n2)c1	.	.	-12.3	-0.2
15	CCOC(=O)N1CCC(n2c(SCC(=O)NCc3ccco3)nc3ccsc3c2=O)CC1	-20.0	108.2	0.6	-1.6

#	RGS16-Gao	HSV augment	HSV augment primary fold
1	74.8	i	0.99
2	101.0	i	0.92
3	96.7	.	.
4	110.3	i	0.92
5	104.5	i	1.16
6	100.8	i	1.18
7	107.4	i	0.98
8	105.6	.	.
9	94.3	i	1.01
10	90.9	i	0.77
11	103.0	i	0.96
12	108.3	i	1.02
13	105.7	i	0.63
14	109.1	i	0.93
15	98.4	i	0.9

Fetched one by one from the entries so far:
#	Compound	INS promoter inh	INS promoter inh cell count	PKD1 kinase inh	GALR2 agonist
15	CCOC(=O)N1CCC(n2c(SCC(=O)NCc3ccco3)nc3ccsc3c2=O)CC1	-20.0	108.2	0.6	-1.6
10	c1ccc(OCc2noc(CN3CCC(C4CCCCC4)C3)n2)cc1 (stereo not given)	.	.	-7.8	.
1	O=C(N/N=C\c1ccc(F)cc1)c1ccc(Cn2cc(Br)c([N+](=O)[O-])n2)o1	-27.3	48.4	-3.2	-1.3
11	CCOc1cc(S(=O)(=O)NCc2ccncc2)ccc1Cl	11.6	85.7	-6.0	.
4	COC(=O)C(/C=N/OCc1ccc([N+](=O)[O-])cc1)NC(=O)c1ccccc1 (stereo not given)	-27.6	122.4	-14.0	-1.1

#	RGS16-Gao	HSV augment	HSV augment primary fold
15	98.4	i	0.9
10	90.9	i	0.77
1	74.8	i	0.99
11	103.0	i	0.96
4	110.3	i	0.92

The results go on:
#	Compound	INS promoter inh	INS promoter inh cell count	PKD1 kinase inh	GALR2 agonist
16	COCCNC(=O)COC(=O)CSCc1nc2ccccc2s1	.	.	-5.1	-4.6
17	O=C(c1cc(-c2ccncc2)nc2ccccc12)N1CCN(c2ccccn2)CC1	-50.0	138.8	-12.2	-2.6
18	O=C1CCC2S/C(=C/Nc3ccc(C(F)(F)F)cc3)C(=O)N12 (stereo not given)	5.0	57.9	1.6	.
19	CCN(CC)CCCOc1nc(C)nc2c1oc1ccccc12	6.7	67.3	-25.6	-2.7
20	CCCCN1C(=O)NC(NC(C)=O)(C(F)(F)F)C1=O (stereo not given)	38.7	164.7	-5.5	-0.1
21	O=S(=O)(c1ccccc1)c1nc(-c2ccco2)oc1N1CCCCCC1	-68.8	57.1	-3.1	-1.7
22	CCOC(=O)c1c(NC(=O)CSc2nnc(-c3c[nH]c4ccccc34)n2CCOC)sc2c1CCCC2	-46.3	97.2	-8.6	1.2
23	CCOC(=O)NC(=O)CSc1nnc(SCCC(=O)O)s1	-20.6	134.1	-9.8	-1.4
24	CCOc1ccc(-c2cc(N)n(S(=O)(=O)c3cccc4nsnc34)n2)cc1	.	.	.	.
25	Cc1ccc(NC(=O)COC(=O)Cn2cnc3c2c(=O)n(C)c(=O)n3C)c(Cl)c1	0.0	107.1	-1.6	.
26	CN(C(=O)COC(=O)C1c2ccccc2Oc2ccccc21)C1CCS(=O)(=O)C1 (stereo not given)	.	.	-3.5	-1.5
27	Nc1nc(Cl)cc(NCCc2ccc(O)cc2)n1	.	.	-5.1	.
28	Cc1nc(C)c(CC(=O)N2CCc3c([nH]c4ccccc34)C2c2ccccn2)s1 (stereo not given)	.	.	3.4	.
29	CC(C)c1ccc2[nH]c(O)c(N=NC(=S)NCCc3ccccc3)c2c1	.	.	-2.5	0.3
30	O=C(CCC(=O)Nc1ccc(Cl)cc1Cl)NNC(=O)Nc1ccccc1	.	.	-6.5	.

#	RGS16-Gao	HSV augment	HSV augment primary fold
16	103.1	i	1.05
17	105.5	i	0.69
18	105.9	i	0.86
19	121.4	i	0.94
20	103.2	i	0.81
21	99.1	i	0.97
22	107.3	.	.
23	102.1	i	0.99
24	102.4	i	1
25	93.6	i	0.98
26	104.4	i	0.84
27	97.3	i	1.05
28	97.5	i	1.13
29	99.6	i	0.81
30	99.0	i	1.01

(next part)
#	Compound	INS promoter inh	INS promoter inh cell count	PKD1 kinase inh	GALR2 agonist
31	CC1CN=C(Nc2cccc(S(=O)(=O)N(C)C)c2)S1 (stereo not given)	.	.	-0.4	.
32	Cc1ccc(-c2[nH]c3cc(C(=O)NCCCn4ccnc4)ccc3c(=O)c2O)cc1	.	.	.	.
33	CCC1=NN=C(c2ccc(F)cc2)C(c2c[nH]c3ccccc23)N1O (stereo not given)	37.5	112.1	-1.9	-2.0
34	O=C1NCCc2cc3c(cc21)OCO3	.	.	-10.0	-2.4
35	CC1=Nc2ccccc2N=C(NC(=O)CN2CCN(c3ccccc3)CC2)C1c1ccccc1 (stereo not given)	.	.	-2.2	.
36	O=C(O)c1cccc(Oc2ccccc2[N+](=O)[O-])c1	23.3	90.3	-8.3	-0.6
37	Cc1ccc2nsnc2c1NS(=O)(=O)c1c(C)ccc2nsnc12	-27.3	115.6	5.1	-0.9
38	CCOC(=O)c1cccc(NS(=O)(=O)c2cnc[nH]2)c1	.	.	0.4	-1.3
39	CCc1nc(SCC(=O)c2c[nH]c3ccccc23)n[nH]1	-85.7	77.5	-5.4	.
40	COc1ccc(Nc2ccnc3ccccc23)cc1	.	.	2.0	-2.7
41	CSc1cccc(NC(=O)/C=C/c2cccc(Cl)c2)c1	-57.1	110.7	-2.6	-2.2
42	CN(C(=O)COC(=O)c1ccc(S(=O)(=O)N2CCOCC2)cc1)C1CCCCC1	0.0	85.0	1.1	.
43	CC(Sc1ccc2c(c1)OCCO2)C(=O)Nc1ccc2c(c1)OCO2 (stereo not given)	.	.	7.9	-2.5
44	COc1cc(C(=S)N2CCOCC2)cc(OC)c1O	.	.	.	.
45	CC1CCCCC1NC(=O)CCn1c(=O)oc2ccccc21 (stereo not given)	i	72.7	-3.1	0.3

#	RGS16-Gao	HSV augment	HSV augment primary fold
31	104.7	i	0.99
32	96.8	i	0.87
33	115.8	i	1
34	112.1	i	0.98
35	103.3	i	0.93
36	104.8	i	0.83
37	109.5	i	1.09
38	102.7	i	0.87
39	114.6	i	0.9
40	97.6	i	0.66
41	92.8	i	0.97
42	103.4	i	0.97
43	95.9	i	1.07
44	99.3	i	0.99
45	105.0	i	0.87

(continued)
#	Compound	INS promoter inh	INS promoter inh cell count	PKD1 kinase inh	GALR2 agonist
46	COc1ccccc1NC(=S)N1C2CCC1CC(NC(=O)NC13CC4CC(CC(C4)C1)C3)C2 (stereo not given)	-18.2	152.3	-8.0	-0.9
47	CC(=O)c1c(C)[nH]c(C(=O)Nc2cc(C)cc(C)c2)c1C	15.6	139.7	-6.3	-1.7
48	S=c1[nH]nc(Cc2c[nH]c3ccccc23)o1	14.3	159.7	-1.8	-2.5
49	COc1ccccc1C(=O)Oc1ccc(C(C)(C)C)cc1	-26.1	113.4	4.6	-3.4
50	CCn1nnnc1NC(=O)c1cc(OC)c(OC)c(OC)c1	.	.	9.1	.
51	Cc1cc(C)cc(N(CC(=O)NCCSc2ccccn2)S(=O)(=O)c2ccccc2)c1	-82.8	125.5	-7.8	-2.6
52	Cc1nc(S/C(=C\c2ccc(-c3ccc(C(=O)O)c(Cl)c3)o2)C(=O)O)n[nH]1	.	.	.	.
53	CCC(=O)N1CCc2cc(S(=O)(=O)NCCC(=O)NC3CCCc4ccccc43)ccc21 (stereo not given)	.	.	-11.1	-1.8
54	COc1ccc(CCN(C(=O)Cn2nnc3ccccc32)C(C(=O)NCC2CCCO2)c2ccncc2)cc1OC (stereo not given)	.	.	-6.6	.
55	Cc1ccc(-n2ncc(C#N)c2/N=C/N2CCN(C)CC2)cc1	0.0	129.1	-1.7	-1.0
56	Cc1ccccc1C(=O)NC(=S)Nc1ccccc1N1CCCC1	2.9	59.9	-2.0	.
57	Cc1ccc(C)c(S(=O)(=O)Nc2ccc(O)cc2)c1	-50.0	37.8	-0.3	-4.1
58	COc1ccccc1NC(=O)C1CCN(c2ncccn2)CC1	-5.9	83.8	-18.3	-0.7
59	NC(=O)C1CC(=O)N(c2ccc(OCc3ccc(Cl)cc3Cl)cc2)C1 (stereo not given)	64.3	113.2	6.0	.
60	COc1cc(OC)cc(C(=O)Nc2cccnc2)c1	35.0	67.7	5.5	.

#	RGS16-Gao	HSV augment	HSV augment primary fold
46	90.1	i	1.01
47	97.9	i	0.85
48	105.2	i	0.84
49	101.9	i	1
50	99.4	i	0.93
51	105.4	i	1.05
52	100.0	?	.
53	97.5	i	0.9
54	144.8	i	1.1
55	120.2	i	0.77
56	99.5	i	0.99
57	100.9	i	1
58	110.4	i	0.92
59	106.5	i	1
60	103.8	i	1.08

Single records, as listed above.
NC(=O)C1CC(=O)N(c2ccc(OCc3ccc(Cl)cc3Cl)cc2)C1 (stereo not given) reads INS promoter inh: 64.3; INS promoter inh cell count: 113.2; PKD1 kinase inh: 6.0; GALR2 agonist: .; RGS16-Gao: 106.5; HSV augment: i; HSV augment primary fold: 1
Cc1ccc(-n2ncc(C#N)c2/N=C/N2CCN(C)CC2)cc1 reads INS promoter inh: 0.0; INS promoter inh cell count: 129.1; PKD1 kinase inh: -1.7; GALR2 agonist: -1.0; RGS16-Gao: 120.2; HSV augment: i; HSV augment primary fold: 0.77

Following part:
#	Compound	INS promoter inh	INS promoter inh cell count	PKD1 kinase inh	GALR2 agonist
61	CC(C)N(C(=O)NC(=O)Nc1ccccn1)S(C)(=O)=O	-7.1	86.5	-3.8	0.0
62	CCOC(=O)N1CCN(Cc2nc(-c3ccc(OC)cc3)no2)CC1	-5.6	110.5	-1.3	-0.6
63	CCCCOc1ccc(CON(C(C)=O)C(C)=O)cc1Cl	.	.	.	.
64	Cc1cc(C)c(OCC(=O)Nc2nc(-c3ccccn3)cs2)c(C)c1	-22.2	132.5	-2.3	.
65	CCOc1cc(S(=O)(=O)NCc2ccccc2)c(OCC)cc1-n1cnnn1	-18.8	108.0	0.8	-0.4
66	c1ccc(Cc2noc(CN3CCC(CN4CCOCC4)CC3)n2)cc1	.	.	-5.7	.
67	Nc1cc(S(=O)(=O)Nc2ccc(Cl)cc2)ccc1N1CCOCC1	.	.	.	.
68	CC(C)CC(NC(=O)c1ccc(Cl)cc1)C(=O)OCc1cc([N+](=O)[O-])cc2c1OCOC2 (stereo not given)	.	.	-2.7	-1.9
69	CC(=O)NC(=S)Nc1ccc2oc(=O)ccc2c1	.	.	.	.
70	Cc1ccc(NC(=O)C2CCC(=O)N2)cc1C (stereo not given)	22.5	62.3	-6.9	1.9

#	RGS16-Gao	HSV augment	HSV augment primary fold
61	99.2	i	1.01
62	.	i	1.18
63	97.6	i	0.82
64	94.0	i	0.95
65	.	i	0.85
66	92.2	i	0.95
67	91.5	i	1.09
68	102.7	i	0.94
69	104.8	i	1.02
70	103.7	i	1.06
